Sa helicase inh: inhibitors of S. aureus replicative helicase, primary screen, biochemical, fluorescence unwinding readout | replicative DNA helicase (DnaC/DnaB), Staphylococcus aureus | purified S. aureus helicase, fluorescence unwinding assay; about half of the hits fall short of the stated cut | inhibition, %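 (tested at about 80 µM)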 | 0.05% of 120,000 active;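 active = both duplicates at 50% or more, or one of them with a favoured structure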;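 also: 0% = mean of negative control wells and 100% = mean of positive control wells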
MgrA DNA FP: S. aureus MgrA activity modulators, primary screen, biochemical, S. aureus Newman, fluorescence polarization. MgrA-DNA binding. inhibition, %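 (about 10 µg/mL by stock and volumes)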. 0.13% of 84,000 active;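 active = above 50% in either of two replicates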;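 also: 0% = protein plus DNA without compound and 100% = DNA alone without protein; higher means less MgrA bound to DNA so lower polarization; one replicate is shown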
Numbers without * were called inactive; nt = not tested or not shown. The list is partial; count on the stated rates, not on these rows.

molecule	Sa helicase inh	MgrA DNA FP
CC(C#N)Sc1nnc(-c2cccc(S(=O)(=O)Nc3ccccc3Cl)c2)n1-c1ccccc1 (centres undefined)	-8	nt
CCCN1C2CCCC1CC(NC(=O)c1cc(OC)c(OC)c(OC)c1)C2 (centres undefined)	4	1.1
CCOC(=O)Nc1ccc(Br)cc1C(NCC(=O)OC)c1ccccc1 (centres undefined)	-11	nt
CCC(Sc1nnnn1-c1ccccc1)C(=O)N1c2ccccc2Sc2ccccc21 (centres undefined)	15	3.4
CCN(CCO)C(=S)Nc1cc(C(=O)OC)ccc1C(=O)OC	-24	nt
COC(=O)C(C)Sc1ncnc2c1sc1nc(N3CCOCC3)c3c(c12)CCCC3 (centres undefined)	-12	nt
O=C(O)c1cc(=O)c2ccccc2[nH]1	-14	-0.3
CC(C)CNC(=O)CSc1ccc2c(c1)OCCO2	-2	nt
CCSc1ccc(C#N)cn1	nt	0.7
COc1cc(-c2nc3ccccc3c(=O)n2NC(=O)/C=C/c2ccc([N+](=O)[O-])cc2)cc(OC)c1OC	nt	-0.1
CCOC(=O)C1=C(CNC(C)C)NC(=O)NC1c1ccccc1 (centres undefined)	-49	nt
Cc1nnc(NC(=O)CSc2nc3c([nH]c4ccccc43)c(=O)n2-c2ccc(F)cc2)s1	-13	nt
C/[N+]([O-])=C\c1ccc(-c2ccccc2)cc1	-6	nt
CCc1ccc2[nH]c(=O)c(CN(Cc3ccco3)C(=O)Nc3ccccc3)cc2c1	3	-1.2
COc1cccc2cc(-c3cn(-c4ccc(F)c(F)c4)c(=S)[nH]3)c(=O)oc12	10	0.1
NC(=S)N/N=C/c1cn(-c2ccccc2)nc1-c1cccnc1	-11	nt
COc1ccccc1C(=O)Nc1ccc(N2CCCCC2)cc1	14	-1.4
CCOC(=O)CSc1nc(-c2ccccc2)nc2c1oc1ccccc12	-24	nt
O=C(N/N=C/C=C/c1ccccc1)NC1CCCCC1	-3	nt
Cc1ccc(C(=O)Nc2ccc3ccccc3n2)cc1	nt	-0.9
O=[N+]([O-])c1ccc2c(c1)S(=O)(=O)CC2SCCO (centres undefined)	nt	-0.2
CC(CC(=O)O)CC1=NS(=O)(=O)c2ccccc2N1 (centres undefined)	0	-1.1
Cc1nc2nc(SCC(=O)NC3CC3)nn2c(C)c1Cc1ccccc1	3	nt
O=C(NC1CCN(C(=O)c2ccc(Cl)cc2)CC1)c1ccccc1	nt	-2.6
OC(CN1CCN(c2nc3ccc(Cl)cc3s2)CC1)Cn1ccc2ccccc21 (centres undefined)	-36	nt

New compounds follow.
molecule	Sa helicase inh	MgrA DNA FP
O/N=C/c1c(Cl)nc2sccn12	nt	-0.2
O=C(NCCCN1CCCCC1)c1ccc(-n2ccc3ccccc32)s1	10	nt
N/C(CC(=O)Nc1ccc(F)c(Cl)c1)=N\O	nt	-0.1
CC1CCN(CCNS(=O)(=O)c2ccc3c(c2)CCCC(=O)N3)CC1	7	nt
CCOC(=O)Cc1csc(SCC(=O)N2c3ccccc3NC(=O)C2(C)C)n1	-6	nt
O=C(CCSc1nnnn1-c1ccccc1)N1CCOCC1	0	-5.1
NC12CC3CC(C1)CC(CC(=O)O)(C3)C2	-14	nt
O=C(CC1Oc2ccccc2NC1=O)NCCCN1CCN(C2CCCCC2)CC1 (centres undefined)	-12	nt
COC(=O)c1ccc(CS(=O)(=O)c2ccc(Br)cc2)o1	-3	nt
CCCCn1c(=S)[nH]c2c1c(=O)[nH]c(=O)n2C	-2	2.2
CC(=O)N1CCc2cc(S(=O)(=O)CCC(=O)Nc3cccc(F)c3)ccc21	8	nt
N[C@@H](C(=O)O)c1ccccc1	nt	-3.4
N#Cc1ccc(OCc2cnc(Cl)s2)cc1	nt	0.2
O=C1/C(=C/c2cccs2)SC(=S)N1CCCN1CCOCC1	0	nt
CCOC(=O)c1cnc(C(C)(C)C)[nH]c1=O	8	-1.6
CCOC(=O)c1[nH]c(=O)[nH]c1Cn1nc(C)cc1C	-6	-2.5
CC1(C)CC(=O)C=C(N2CCNCC2)C1	12	-1.5
CCc1ccc(N2C(=O)CC(Sc3nnc(N)s3)C2=O)cc1 (centres undefined)	-7	2.9
CC(C)C(NC(=O)c1ccco1)C(=O)Nc1sc2c(c1C(N)=O)CCC2 (centres undefined)	-1	nt
S=C(N=S(c1ccccc1)c1ccccc1)Nc1ccccc1	9	-0.7
Cc1nn(Cc2ccccc2)c(C)c1C(=O)NCCN1C(=O)S/C(=C\c2cccs2)C1=O	-7	nt
CC(=O)CC1(O)C(=O)Nc2ccc(F)cc21 (centres undefined)	nt	-2.5
CCOC(=O)/C(C#N)=N\Nc1ccccc1OC	-7	1.7
CCN1C(=O)CC(NC2CCN(C(=O)c3ccc(F)cc3)CC2)C1=O (centres undefined)	8	0.9
N#Cc1c2n(c3c(=O)[nH]cnc13)CCCC2	nt	-0.1

Other structures follow:
molecule	Sa helicase inh	MgrA DNA FP
CN(C)c1ccc(/C=C2\C(=O)NC(=O)N(C3CCCC3)C2=O)o1	-81	-16
COC(=O)c1ccccc1NC(=O)Cn1ncc2c(=O)oc3ccccc3c21	15	nt
COC(=O)/C=C1\SC(=O)NC1=O	-8	nt
O=CN(CN1C(=O)c2ccccc2S1(=O)=O)CN1C(=O)c2ccccc2S1(=O)=O	nt	-2.3
CC(C)c1ccc(NC(=O)COn2nnc3ccccc32)cc1	6	-0.9
O=C(NCCCN1CCOCC1)C1CCN(C(=O)c2cnn(-c3ccccc3)c2-n2cccc2)CC1	-4	nt
c1ccc(CSc2nncn2-c2ccccc2)cc1	14	nt
CCOc1cc(C#N)c(NC(=O)c2ccnn2C)cc1OCC	-18	nt
O=C(O)C1CCN(c2ncnc3sccc23)CC1	-16	nt
Cc1cc(C)n(-c2nc3cc(Cl)ccc3nc2NCc2ccc3c(c2)OCO3)n1	-13	1.6
Cc1cc(C)nc(NS(=O)(=O)c2ccc(NC(=O)c3sc4ccccc4c3Cl)cc2)n1	nt	0.3
Cc1noc2ccccc12	5	nt
CCCc1ccc(C(=O)Nc2cccnc2Oc2ccc(Cl)cc2)cc1	nt	-2.9
O=C(O)Cc1ccc(Nc2nc3ccccc3n3nnnc23)cc1	-65	nt
O=C(Cn1c(=O)n(CCc2ccccc2)c(=O)c2ccccc21)Nc1ccc(Cl)cc1	8	nt
C/C(=N\NC(=O)C1CC1(C)c1ccccc1)c1ccco1 (centres undefined)	7	3.4
CC[C@H]1CN2CCc3cc(OC)c(OC)cc3C2C[C@@H]1CC1NCCc2cc(OC)c(OC)cc21 (some centres undefined)	nt	6.2
C=CCSc1nnc(NC(=O)CN(C)S(=O)(=O)c2ccc(Cl)cc2)s1	9	nt
CCn1nnc(-c2ccccc2N)n1	11	nt
CCN1CCSc2ccc(C(=O)NCCC(C)C)cc21	27	nt
Cc1ccc(Nc2nc(CSc3nnnn3Cc3cccs3)cs2)cc1	5	nt
CCOC(=O)Cc1csc(C)n1	16	-0.8
O=C1CCCN2N=C(SCC(=O)N3CCCCC3)SC2=N1	-14	nt
CCN(C(=O)Cn1ncc(Cl)c(Cl)c1=O)c1ccccc1	-1	nt
Cc1ccc2cc3cc(C(=O)NCC4(c5ccccc5)CCCC4)oc3nc2c1	4	-0.8

Complete entries, looked up by structure. Screens in order: Sa helicase inh, MgrA DNA FP
`CCN1CCSc2ccc(C(=O)NCCC(C)C)cc21` across the screens: 27, nt
`CCN(C(=O)Cn1ncc(Cl)c(Cl)c1=O)c1ccccc1` across the screens: -1, nt
`O=C(O)C1CCN(c2ncnc3sccc23)CC1` across the screens: -16, nt
`COC(=O)/C=C1\SC(=O)NC1=O` across the screens: -8, nt

Remaining list, next part
molecule	Sa helicase inh	MgrA DNA FP
O=C(CSc1ccc(Cl)cc1)Nc1cccc(Cl)c1	1	0.0
CCOc1nc(C)ccc1-c1noc(-c2ccccc2Cl)n1	8	nt
S=c1nc2c(cnn2-c2ccccc2)c(Nc2ccccc2)[nH]1	nt	1.1
CC(C)(C)OC(=O)NC1(C(=O)O)CC1	nt	-4.3
O=C(COC(=O)/C=C/c1ccco1)Nc1ccccc1	-24	3.8
Cc1onc(-c2c(Cl)cccc2Cl)c1C(=O)NC(=S)N1CCOCC1	nt	-1.4
O=C(N/N=C/c1ccco1)c1cccc(NC(=O)c2cccc(Cl)c2)c1	33	nt
Cc1cccc(CN2CCN(CC(=O)O)C2=O)c1	4	nt
Cc1cc(C)cc(N2C(=O)N(CC(=O)N3CCOc4ccc(C)cc43)C3CS(=O)(=O)CC32)c1 (centres undefined)	10	nt
C=CCn1c(SCc2ccccc2C#N)nc2scc(-c3cccs3)c2c1=O	-2	nt
c1cc2c(cc1-c1nnc(NC3CCCCC3)o1)OCO2	-2	nt
COc1ccc2c(c1)O/C(=C\c1cccc(OC(=O)N3CCOCC3)c1)C2=O	7	nt
CCOc1c(Cl)cnn(-c2ccccc2)c1=O	-1	2.0
CCOc1ccccc1C1Nc2ccccc2NC2=C1C(=O)CC(c1ccc(OC)c(OC)c1)C2 (centres undefined)	nt	-0.3
CCSc1nnc(SCc2cc(=O)oc3cc(OC)ccc23)s1	-2	nt
O=c1oc2c3c(ccc2c2c1CCCC2)OCN(c1ccc(F)cc1)C3	25	nt
COC(CNc1ncnc2c1c(-c1ccccc1)cn2-c1ccc(C)cc1)OC	2	-1.5
COc1ccc(C(=N/O)/C(=N/O)c2ccc(OC)cc2)cc1	4	0.5
Cc1oc2cc(O)cc(C)c2c(=O)c1Oc1ccccc1	7	nt
Fc1ccccc1Cn1c(CSC2=NCCN2)nc2ccccc21	14	nt
O=C(COc1ccc(Br)cc1)Nc1ccccc1N1C(=O)c2ccccc2C1=O	-8	-1.6
NC(=O)C1CCN(C(=O)CN(Cc2ccccc2)S(=O)(=O)c2ccccc2)CC1	-14	nt
Cc1ccc(-n2cc(-c3ccccc3)c3c(NN4CCOCC4)ncnc32)cc1Cl	10	-0.2
N#Cc1cc(C(=O)c2cccs2)c2nc3ccccc3n2c1N	-245	nt
Nc1nc(C(=O)N2CCOCC2)nn1S(=O)(=O)c1ccc(Cl)cc1	15	2.7

(next part)
molecule	Sa helicase inh	MgrA DNA FP
CC1CCCC(C)N1C(=O)COC(=O)c1cccs1 (centres undefined)	-7	-2.1
COc1ccc(/C=N/NC(=O)CSc2nc3ccccc3o2)cc1OC	-27	nt
O=C(O)c1cc(OCC(F)(F)F)nc(OCC(F)(F)F)c1	nt	2.2
Cc1cccc2nc(Cn3c(=O)n(CCC(=O)NCc4ccco4)c(=O)c4ccccc43)cc(=O)n12	10	-1.5
CCCCN1C(=O)/C(=C2\SC(N3CCOCC3)=NC2=O)c2ccccc21	33	nt
COc1ccccc1NNC(=O)C1CCCCC1	2	nt
CCN(CC)CCCOc1cccc2ccccc12	9	-2.3
C=CCn1c(CCSCc2ccc(OC)cc2)n[nH]c1=S	-1	1.1
CC(C)(C)C(=O)n1cc2c(n1)-c1cc(Cl)ccc1SC2	nt	-1.2
O=C(NCc1ccccn1)c1cc(Sc2ccc(F)cc2)nc2ccccc12	13	-2.1
O=S(=O)(Cc1ccc(Cl)cc1)CC(O)COc1ccc(F)cc1 (centres undefined)	nt	-1.4
CC(=O)Oc1ccccc1C(=O)N1CC(C)OC(C)C1 (centres undefined)	-2	2.0
CC(C)NCc1nnc(-c2ccccc2Cl)o1	-3	nt
Cn1ccnc1SCC(=O)c1ccc(NS(C)(=O)=O)cc1	-8	nt
CCSc1nsc(SCC)c1C(N)=O	14	-2.5
CCOc1ccc(Nc2cnnc(Nc3ccc(OCC)cc3)n2)cc1	-4	0.9
O=C(O)c1ccsc1	15	nt
CC1(C)CC(=O)C2=C(C1)OC(N)=C(C#N)C21CCCCC1	-1	0.1
CC(NC(=O)C1CC1)c1ccncc1 (centres undefined)	14	3.0
Cc1ccc(NC(=S)N2CCC(N(C)CCN3CCOCC3)CC2)cc1C	-16	0.8
O=C1C2CC=CCC2C(=O)N1CN(Cc1ccccc1)Cc1ccccc1 (centres undefined)	2	nt
Cn1c(=NC(=O)C2COc3ccccc3O2)sc2ccccc21 (centres undefined)	6	nt
CC(=O)N1C(O)CCN1c1ccccc1 (centres undefined)	4	-0.5
NCc1ccc(-c2ccc(Cl)cc2)o1	-7	nt
Cc1cc(C)n(-c2ccc(N3CC(C)OC(C)C3)nn2)n1 (centres undefined)	nt	1.8

Next part
molecule	Sa helicase inh	MgrA DNA FP
COc1ccc(CCNC(N)=S)cc1OC	4	3.9
Cc1cccc(N(C)S(=O)(=O)c2c(C)noc2C)c1	9	nt
CCCCCCC1CCC/C1=N\NC(N)=O (centres undefined)	2	4.8
O=C(NCC1CCCO1)c1ccc(S(=O)(=O)N2CCCCC2)cc1 (centres undefined)	-7	-0.7
O=C(O)CC1=C(c2cccs2)N2CCN=C2S1	15	nt
O=C1CC(C(=O)Nc2nncs2)C(c2ccccc2)O1 (centres undefined)	-7	-0.7

Compound activity as filed in PubChem.
